# AF4-AF9 inh: inhibitors of AF4 peptide binding to AF9, primary screen, biochemical, AlphaScreen, biotin-AF4 peptide, FLAG-AF9, single point; Protein AF-9 (Homo sapiens), P42568; inhibition, % at 10 µM; 350,000 compounds, 0.47% hits; AID 651704, 2012;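 active = every replicate reaching a set inhibition limit, whatever the replicate mean, cut at about 25% in these data; inconclusive = mean inhibition reaches that limit but some replicates miss it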;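 also: 0% = plate neutral control median and 100% = total signal loss; the record names both 10 and 1 µM as test concentration; the first replicate is given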
# Ecoli growth: E. coli growth inhibition, primary screen, OD600; Escherichia coli growth, 23 h; active compounds read low; 330,000 compounds, 0.21% hits; OD600 absorbance (test concentration not listed); AID 1053175, 2014;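 active = OD600 absorbance below the run mean of sample wells minus 3.6 SD, in any replicate, cut at about 0.56 in these data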;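 also: stock transfer was 300 nL into about 60 µL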
# Vif A3G: inhibitors of Vif binding to APOBEC3G peptide, primary screen, biochemical, TR-FRET, GST-Vif 1-94, biotin-A3G peptide, dose response retest (AID 1117319). TR-FRET GST-Vif / biotin-A3G peptide binding; higher % means a stronger effect; test concentration not given here; strong numbers were not always called active. one-dose inhibition, %; IC50 in µM for titrated hits. 260,000 compounds, 0.57% hits;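 active = above the screen mean plus three standard deviations and confirmed in dose response; inconclusive = results disagree or hit not tested in dose response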;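 also: Vif residues 1-94 fused to GST binding biotinylated APOBEC3G peptide 110-148; 0% = full assay without inhibitor and 100% = GST in place of GST-Vif; retest series ran down from 100 µM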
# HNF4A DNA FP: change in binding of human HNF4A to DNA, primary screen, biochemical, fluorescence polarization, FITC-DNA; Hepatocyte nuclear factor 4-alpha (Homo sapiens), P41235; 1 h; activity change, % at 10 µM; 360,000 compounds, 0.3% hits; AID 1224865, 2016; in the data active = activity change above about 30%, passing the limit was not always enough;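 also: controls were the assay level and a saturating level of protein; the project sought stronger binding though the title names inhibitors; some compounds called inactive have numbers as strong as hits; positive values seem to mean higher polarization but the record does not say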
# Target sequence (P41235 whole entry, looked up): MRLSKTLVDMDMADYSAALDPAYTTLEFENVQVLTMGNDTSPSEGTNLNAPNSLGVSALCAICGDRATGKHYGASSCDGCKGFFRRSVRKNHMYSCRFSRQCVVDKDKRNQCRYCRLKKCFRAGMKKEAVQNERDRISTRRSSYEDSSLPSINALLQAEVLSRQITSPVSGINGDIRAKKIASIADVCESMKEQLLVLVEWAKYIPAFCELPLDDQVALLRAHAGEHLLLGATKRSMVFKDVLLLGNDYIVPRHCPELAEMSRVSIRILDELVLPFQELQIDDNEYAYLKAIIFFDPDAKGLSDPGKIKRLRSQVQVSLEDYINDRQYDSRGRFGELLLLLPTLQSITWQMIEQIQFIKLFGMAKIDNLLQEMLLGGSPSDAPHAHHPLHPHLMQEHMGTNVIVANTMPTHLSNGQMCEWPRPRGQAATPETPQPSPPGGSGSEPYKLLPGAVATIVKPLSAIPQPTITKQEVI
# FGF22 binding: binders of human FGF22 protein, primary screen, FGF22 synaptogenesis inhibitor project, biophysical, thermal shift, single point. calls only at 9.99 µM. AID 651658, 2012. 340,000 compounds, 1.5% hits. Fibroblast growth factor 22 (Homo sapiens), Q9HCT0. recombinant FGF22 thermal shift, SYPRO orange fluorescence; percent of sucrose octasulfate shift, DMSO zero;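 active = melting point raised past a set limit in the mean and every replicate; inconclusive = no clear call; three in four hits are not shown here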
# Target sequence (Q9HCT0 whole entry, looked up): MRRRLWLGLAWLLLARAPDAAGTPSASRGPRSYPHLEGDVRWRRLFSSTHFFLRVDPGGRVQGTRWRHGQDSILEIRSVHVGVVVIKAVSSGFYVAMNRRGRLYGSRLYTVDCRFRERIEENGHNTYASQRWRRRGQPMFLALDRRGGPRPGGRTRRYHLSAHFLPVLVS
# UCH37 inh: inhibitors of human UCH37 deubiquitinase, primary screen, biochemical, Ub-AMC cleavage, fluorescence | Ubiquitin carboxyl-terminal hydrolase isozyme L5 (Homo sapiens), Q9Y5K5 | purified proteasome/UCH37 | inhibition, % (concentration not given with the values) | 330,000 compounds, 0.33% hits;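 active = mean of two replicates above 20%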;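 also: 0% = compound-free wells with enzyme and 100% = wells lacking proteasome; stock transfer was 100 nL into about 20 µL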
# Target sequence (Q9Y5K5 whole entry, looked up): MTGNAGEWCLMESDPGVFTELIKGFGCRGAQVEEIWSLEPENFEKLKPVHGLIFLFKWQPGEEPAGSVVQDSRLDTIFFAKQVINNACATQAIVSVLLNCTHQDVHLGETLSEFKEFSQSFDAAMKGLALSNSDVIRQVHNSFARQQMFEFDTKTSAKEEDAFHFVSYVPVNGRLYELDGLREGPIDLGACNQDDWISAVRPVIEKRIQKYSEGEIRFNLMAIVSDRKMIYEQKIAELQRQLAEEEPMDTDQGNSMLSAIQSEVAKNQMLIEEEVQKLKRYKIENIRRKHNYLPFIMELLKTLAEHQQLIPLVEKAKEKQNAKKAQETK
#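 Material: human UCH37 enzyme supplied as purified proteasome complex / Amount: 0.15 nM proteasome as dispensed / Buffer or medium: pH 7.4 Tris-HCl (50 mM) with ovalbumin, ATP-MgCl2, DTT / Times: preincubation 30 min, reaction 25 min, room temperature / Technique: AMC fluorescence from Ub-AMC cleavage, excitation 355 nm, emission 460 nm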
# RanGTP-Impb inh: inhibitors of RanGTP-importin-beta interaction, primary screen, biochemical, FRET, CFP-Ran, YFP-importin-beta, homogeneous; 300,000 compounds, 1.1% hits; cell-free CFP-Ran/YFP-importin-beta FRET ratio; inhibition, % (test concentration not listed); AID 2216, 2009;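 active = most replicates above 15%; inconclusive = exactly half above 15%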;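 also: 0% = DMSO wells and 100% = Ran loaded with GDP instead of GTP; wells of about 40 µL received 100 nL stock; the first replicate is given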
# Numbers without * were called inactive; i = inactive; ? = inconclusive; / = not tested or not shown. A portion of the library. The share of hits here may be higher or lower than overall.
SMILES,AF4-AF9 inh,Ecoli growth,Vif A3G,HNF4A DNA FP,FGF22 binding,UCH37 inh,RanGTP-Impb inh
Cc1cccc(NC(=O)C2CCCN2C(=O)OCC(C)C)c1 (stereo not given),/,0.7,1%,-5.4,/,1.1,/
Cc1ccc(Cn2ccc(NC(=O)c3noc4c3CCCC4)n2)cc1,/,0.75,5%,-2.0,/,3.9,?
Cc1ccccc1CCN1CCCC(CN(C)C(=O)c2ccc3ncccc3c2)C1 (stereo not given),3.3,0.68,1%,-1.9,i,2.1,1.1
FC(F)(F)c1ccc(-c2nnc(-c3cccnc3)o2)cc1,-7.5,0.65,/,-0.5,i,1.9,-0.5
COc1cc(CNc2ccc(N3CCCC3)cc2)ccc1OCc1ccccc1F,/,0.68,26%,3.3,/,5.2,/
Cc1cc(C)cc(N(CCC#N)C(=O)COC(=O)c2nc3nc(C)cc(C)n3n2)c1,12,/,/,5.2,i,/,1.6
O=C(NCCS(=O)(=O)N1CCN(c2ccccc2)CC1)c1ccccc1F,0.1,0.62,-7%,0.5,i,0.5,3.9
CCc1nc2ccc(C(=O)NCCCn3ccnc3)cn2c1N(C)Cc1cccs1,4.6,/,/,2.0,i,/,/
CC(Oc1ccccc1F)C(=O)NNC(=O)c1cccc(S(=O)(=O)N2CCN(C)CC2)c1 (stereo not given),-0.2,0.71,-2%,-0.1,i,0.6,/
COc1ccc(N(CC(=O)NC(C)c2ccccc2)S(=O)(=O)c2c(C)noc2C)cc1 (stereo not given),-1.2,0.66,/,-3.4,i,3.4,3.3
Cc1c(C(=O)N2CCN(c3ccccc3F)CC2)sc2ncn(CC(=O)N3CCOCC3)c(=O)c12,/,0.67,33%,-3.6,/,5.2,2.8
COC(=O)c1ccc(C)c(NC(=O)CCCN2C(=O)NC(C)(C)C2=O)c1,1.8,0.72,-11%,-0.1,i,4.5,/
Cc1nnc(Cc2ccco2)c2n[nH]c(C)c12,1.8,/,-1%,-3.9,i,/,/
COc1ccc(NC(=O)CN(C)CC(=O)N(C)C2(C#N)CCC(C)CC2)cc1 (stereo not given),-0.9,0.67,/,-4.5,i,1.3,/
NNC(=O)CCCNc1ncc(C(F)(F)F)cc1Cl,-3.4,0.69,/,-1.9,i,1.4,1.8
CCOC(=O)COc1nc2ccc(Br)cc2c(-c2ccccc2)c1C(C)=O,-0.7,0.68,4%,1.7,i,3.8,-1.1
COC(=O)c1cccc(NC(=O)CSCc2ccccc2)c1,-2.0,0.64,7%,1.7,i,1.8,2.1
COc1ccc(/C=C/C(=O)NC(C)C)cc1Br,/,0.75,23%,5.5,/,3.7,-1.8
N#CC[C@H](Cc1ccccc1)N1CCN(Cc2ccccc2)CCC1=O,0.2,/,/,2.6,i,3.5,2.1
CC(Nc1ccc2ccccc2c1)C(=O)N/N=C/c1ccncc1 (stereo not given),4.3,/,10%,-2.1,i,/,/
COC1CC(NC(C)=O)C(OC(=O)c2ccccc2)C(CBr)O1 (stereo not given),4.1,/,-5%,-0.5,i,/,/
COc1ccc(CCC(=O)NC2CCC(C)CC2)cc1 (stereo not given),-0.9,0.7,/,-0.2,i,0.5,-0.8
O=C1C2N=NN(CC(=O)N3N=C(c4cccc5ccccc45)CC3c3ccccc3)C2C(=O)N1c1ccccc1 (stereo not given),/,0.77,/,6.9,/,-28,-1.0
COc1cc(-c2nnc(SCC(=O)/C(C#N)=C(\C)N)o2)cc(OC)c1OC,/,0.68,4%,1.1,/,3.6,-0.1
COc1ccc(-c2csc3ncnc(N4CCN(S(=O)(=O)c5cccs5)CC4)c23)cc1,-0.3,0.66,-3%,-0.8,i,-0.6,-0.1
Cc1ccc(C(=O)N(Cc2ccccc2)C(C)(C)C)cc1C,/,0.71,-3%,1.9,/,1.3,3.4
CC1(C)CC(=O)C(C2(O)C(=O)Nc3ccccc32)CO1 (stereo not given),-1.5,/,8%,-1.8,i,/,/
N#CCSc1nc2sc3c(c2c(=O)n1C1CCCCC1)CCCC3,/,0.72,65%,3.0,/,-2.1,3.2
O=C(Nc1c[nH]c(=O)[nH]c1=O)OCc1ccccc1,2.6,0.67,-8%,-4.2,i,-0.7,/
COCCCNC(=O)c1nc2ccccc2c(=O)n1NC(=O)Nc1c(Cl)cccc1Cl,-12,0.64,-4%,0.7,i,7.1,0.9
O=C(CCc1ccccc1)NNC(=O)c1ccc(Cl)cc1,-3.4,0.65,-10%,6.8,i,2.1,-3.8
COC(=O)Nc1ccc(S(=O)(=O)N2CCCC(C(=O)N3CCOCC3)C2)cc1 (stereo not given),1.2,0.65,11%,-0.8,i,5.1,2.9
O=C(COC(=O)Cc1c(F)cccc1Cl)NCCC1=CCCCC1,/,0.7,-2%,0.9,/,3.8,-0.7
O=C(NCC1CCCO1)c1ccc(/C=N/O)nc1 (stereo not given),/,/,2%,-0.6,/,/,5.7
CC(C)NC(=O)NC(=O)COC(=O)C1CCCN1C(=O)c1cccs1 (stereo not given),/,0.7,8%,-0.9,/,-0.3,2.4
O=C(NCc1ccc(F)cc1)c1cc(-c2cccs2)on1,/,0.7,-3%,-4.4,/,1.7,-2.2
Cc1cc(C)n(C(=O)Cc2cn3ccsc3n2)n1,/,0.69,4%,1.8,/,-2.6,-1.7
CCOC(=O)c1c(C)[nH]c(C)c1C(=O)COC(=O)c1nn(CC)c(=O)c2ccccc12,5.5,/,8%,3.0,i,/,/
C/C(=N/NC(=O)CNC(=O)/C=C/c1ccccc1)c1ccco1,-31,/,?,1.8,i,/,2.0
CC1CCc2[nH]c3ccc(C(=O)N(C)CC(=O)Nc4ccccc4Br)cc3c2C1 (stereo not given),1.4,0.72,1%,-3.0,i,4.4,10
COc1ccc(F)cc1-c1cc(C(=O)NCc2cc(C(F)(F)F)cc(C(F)(F)F)c2)[nH]n1,-4.9,/,/,1.5,i,/,/
CN(C)c1nc(OCCNC(=O)COc2ccc(Cl)cc2Cl)nc(N(C)C)n1,/,0.69,4%,0.9,/,2.0,-1.1
COc1cc(C)ccc1S(=O)(=O)n1nc(C)cc1C,-1.2,0.68,30%,1.4,i,2.7,1.3
Cc1ccc(NC(=O)CSc2nccn(-c3ccc4c(c3)OCCO4)c2=O)cc1,0.1,0.67,-73%,-1.9,i,-3.6,-1.8
O=C(Nc1ccccc1O)N1c2ccccc2Sc2ccccc21,0.0,0.64,-3%,-1.4,i,2.4,-0.9
COc1cc(NC(=O)CN2C(=O)C(c3ccccc3)=NC23CCCCCC3)cc(OC)c1,/,0.72,/,-0.5,/,1.5,1.1
COCCNC(=S)NCCCNc1nc2cc3c(cc2cc1C#N)OCO3,/,0.65,-3%,-4.1,/,-317,87*
N/C(Cc1ccc([N+](=O)[O-])cc1)=N\OC(=O)c1ccc(Br)o1,4.1,/,-4%,2.0,i,/,4.7
CC(=O)c1[nH]c(C)c(C(C)=O)c1C,/,0.67,2%,0.8,/,0.0,?
COc1cc(SC)ccc1C(=O)OCC(=O)N1CCN(C(C)=O)CC1,-1.1,0.65,-3%,-4.2,i,0.1,-1.8
Cc1c(NS(=O)(=O)c2cc(C(=O)NCCN(C)C)ccc2Cl)c(=O)n(-c2ccccc2)n1C,-1.3,0.68,6%,-1.2,i,0.0,0.1
Cc1cccc(NC(=O)CSc2nc(=O)n3ccccc3n2)c1C,-2.9,0.64,0%,-4.1,i,5.8,1.3
CCOc1ccc(S(=O)(=O)NCCC(=O)NNC(=O)c2ccc(F)cc2)cc1,-1.0,/,0%,-0.5,i,/,/
O=[N+]([O-])c1ccc(Nc2nc(Cl)nc(NCCO)n2)cc1,2.0,0.71,-6%,2.9,i,4.4,1.7
COc1ccccc1-c1nnc(SCC(=O)Nc2c(Cl)cccc2Cl)o1,/,0.68,6%,-0.8,/,3.5,3.2
NC(=O)NC(=O)COC(=O)CCSc1ccccc1,-16,0.62,0%,-0.9,i,0.3,?
O=C(N/N=C/C=C\c1cccc([N+](=O)[O-])c1)c1cccnc1,-6.1,/,16%,1.6,i,/,8.5
CCOc1ccc(C(C)=O)cc1COC(=O)c1cnc(Cl)c(Cl)c1,-1.6,0.68,/,-2.0,/,-2.9,4.5
N=c1c2c(ncn1Cc1ccco1)Oc1cc(O)ccc1C2c1ccccc1 (stereo not given),1.9,0.7,32%,-21,i,1.6,0.8
C=CCn1c(SCC(=O)Nc2cc(C)on2)nc2c([nH]c3ccccc32)c1=O,-1.2,0.77,1%,0.3,i,-2.0,/

# Later entries
SMILES,AF4-AF9 inh,Ecoli growth,Vif A3G,HNF4A DNA FP,FGF22 binding,UCH37 inh,RanGTP-Impb inh
CC1CC(C)CN(C(=O)CSc2nnc(-c3ccc(Cl)cc3)o2)C1 (stereo not given),-2.0,0.72,-2%,1.9,i,0.8,1.0
Cc1ccc(CNC(=O)Nc2ccc(Cl)cc2)cc1,-4.0,0.73,1%,-3.3,i,-2.0,?
O=C(NCc1ccccn1)C(=O)N/N=C/c1ccc2c(c1)OCO2,-0.2,/,/,0.7,i,/,1.8
O=C(NC1CCSc2ccccc21)c1cc(S(=O)(=O)N2CCOCC2)ccc1F (stereo not given),-1.2,0.69,-2%,0.9,i,-0.9,?
Cc1cc(C(=O)N/N=C/c2cccc([N+](=O)[O-])c2)c2ccccc2n1,-4.7,/,/,2.5,i,/,1.8
Cc1ccc(S(=O)(=O)N2CCN(S(C)(=O)=O)C2c2ccccc2)cc1 (stereo not given),/,0.78,3%,0.7,/,3.0,/
COCCn1nnnc1C(C(C)C)N(Cc1cccnc1)Cc1ccccc1Cl (stereo not given),/,0.69,?,-2.1,/,7.0,-3.7
COc1ccc(C(=O)C[n+]2cccc(C(N)=O)c2)cc1,-1.0,0.64,/,-2.5,i,1.6,-2.3
Cc1n[nH]c(=O)c2c(NC(=O)CSc3nncn3C(C)C)oc(C)c12,-3.9,0.69,-8%,-0.8,i,4.4,/
O=C(O)CCCC(=O)NCCc1cccc(Cl)c1,/,0.7,75%,1.1,/,1.3,1.6
O=C1C2C3C=CC(C3)C2C(=O)N1c1ncn[nH]1 (stereo not given),/,0.67,19%,-1.0,/,-1.5,4.7
CC(=O)Nc1ccc(S(=O)(=O)N(C)c2ccc(OCC(=O)Nc3ccccc3C(C)=O)cc2)cc1,4.2,0.64,-8%,-1.2,i,-1.1,/
CCN(C(=O)COC(=O)c1ccc2c(c1)OCO2)c1c(N)n(Cc2ccccc2)c(=O)[nH]c1=O,-0.7,0.66,2%,0.4,i,1.4,/
O=C1c2ccccc2C(=O)N1OCc1ccccc1[N+](=O)[O-],-4.2,0.71,-1%,1.1,i,4.9,-2.5

# Source: PubChem BioAssay (several laboratories)
